Screening data as filed in PubChem BioAssay.
TRPML1 inh – human mucolipin-1 channel inhibition; Q9GZU1; TRPML1-inducible cells, Ca2+ dye fluorescence, FDSS; active compounds read low; inhibition of EC80 agonist-evoked calcium signal; activity change, negative = inhibition, % (concentration not given with the values); hit rate 0.02% among 390,000; AID 624415; in the data active means activity change below about -50%; inconclusive means about -30% to -50%; inactive means above about -30%;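 also: stimulus is agonist 54-4 at its EC80 concentration; % is scaled to controls: 0 for no effect and ±100 for the full control effect; the text of the record puts the active cut at -80%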
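TRPML1-DL cells, Tet-induced overnight (~16 h, 37 °C) at 1,500 cells/well, were loaded with Ca8 no-wash dye plus quencher for 45-90 min at room temperature. Compounds were pinned during FDSS kinetic reading; agonist 54-4 at EC80 (4 uM final) then added.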
TRPML1 agonist – agonists of human TRPML1 channel. Q9GZU1. TRPML1-expressing cells, Ca2+ dye fluorescence, FDSS; host cell line not named in the record; reference of the full effect not given here. activation, % (test concentration not listed). hit rate 0.12% among 410,000; in the data active = activation above about 50%; inconclusive = about 30% to 50%; inactive = below about 30%; also: 0% is about no effect; the text of the record puts the active cut at 80%
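In this qHTS format, compounds were pin-transferred onto Ca8-dye-loaded TRPML1-DL cells induced with Tet overnight, and intracellular Ca2+ fluorescence was recorded kinetically for 110 s after a 10 s baseline. A subsequent 4uM final 54-4 (EC80) addition followed by a second 110 s read served as the antagonist phase.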
D2 PAM – positive allosteric modulators of human D2 dopamine receptor | DiscoveRx D2 beta-arrestin cells, luminescence, 90 min; 100% = 57 uM dopamine signal | hit rate 0.23% among 360,000 | potentiation, % (test concentration not listed); active = potentiation of 50% or more; inconclusive = 30% to 50%; inactive = 30% or less;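 also: compound concentration not given in the record; tested on top of an EC20 dose of dopamine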
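D2 cells co-treated with compound plus 50 nM dopamine (EC20) for 90 min at 37 deg C to detect potentiation. Beta-arrestin recruitment was read as enzyme-fragment luminescence after 1 h at ambient temperature. Full response was set by 57 uM dopamine.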
D2 agonist – activates the human D2 dopamine receptor. P14416. DiscoveRx PathHunter D2 beta-arrestin, luminescence, 90 min; 100% = 57 uM dopamine signal. activation, % (test concentration not listed). hit rate 0.084% among 360,000; in the data active = activation above about 40%; inconclusive = about 15% to 40%; inactive = below about 15%; also: compound concentration not given in the record; the text of the record calls up to 30% inactive
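Agonist mode: compounds alone added to overnight-plated D2 PathHunter cells for 90 min at 37 C, with 57 uM final dopamine (EC100) defining full response. Beta-arrestin recruitment detected by chemiluminescent reagent, read after 1 h at ambient temperature.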
PINK1 modulator – modulators of PINK1 expression | PINK1 immunofluorescence, high-content cytometry, 24 h | Potency, µM (highest dose often 76.6 µM), for inactives: at the top dose activation (PINK1 increase), usual class: activators | hit rate 0.2% among 410,000 | AID 624263; active = well fitted activation curve with a large enough effect; inconclusive = small, poorly fitted or top-dose-only effect; inactive = flat fitted curve, though single readings scatter; cell line not stated here;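 also: potency is read from the fitted curve at half-maximal effect; % of control where 0% means no effect; nearly all actives have a fitted effect of over 65% in size; a mitochondrial uncoupler was the plate control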
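Stable cell line treated 24 h with compounds at 5 concentrations (CCCP controls), then fixed and immunostained for PINK1 plus nuclear and cell stains; PINK1 immunofluorescence quantified by laser-scanning microplate cytometry.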
Six1-Eya2 inh – inhibitors of human Six1/Eya2 interaction; Q15475+O00167; AlphaScreen GST-Six1/His-Eya2 binding, biochemical; active compounds read low; control for the full effect not named in the record; activity change, % (no concentration beside the values); hit rate 0.56% among 360,000; in the data active = activity change below about -65%; inconclusive = about -30% to -65%; inactive = above about -30%; also: % is scaled to controls: 0 for no effect and ±100 for the full control effect
Target sequence (O00167 whole entry, looked up): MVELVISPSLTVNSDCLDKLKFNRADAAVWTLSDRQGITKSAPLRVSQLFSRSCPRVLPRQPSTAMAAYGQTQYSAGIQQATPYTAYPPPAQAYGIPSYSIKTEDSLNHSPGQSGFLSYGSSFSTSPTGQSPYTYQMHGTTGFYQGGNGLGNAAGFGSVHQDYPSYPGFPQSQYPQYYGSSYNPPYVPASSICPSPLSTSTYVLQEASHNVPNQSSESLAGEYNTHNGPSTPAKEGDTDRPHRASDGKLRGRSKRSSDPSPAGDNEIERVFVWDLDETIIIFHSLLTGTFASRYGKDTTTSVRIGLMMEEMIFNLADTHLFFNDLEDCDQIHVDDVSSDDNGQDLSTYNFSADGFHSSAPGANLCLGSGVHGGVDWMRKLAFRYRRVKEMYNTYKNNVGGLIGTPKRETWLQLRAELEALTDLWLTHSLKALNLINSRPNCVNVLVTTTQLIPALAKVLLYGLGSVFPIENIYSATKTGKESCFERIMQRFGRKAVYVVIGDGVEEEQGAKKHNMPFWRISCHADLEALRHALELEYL
Target sequence (Q15475 whole entry, looked up): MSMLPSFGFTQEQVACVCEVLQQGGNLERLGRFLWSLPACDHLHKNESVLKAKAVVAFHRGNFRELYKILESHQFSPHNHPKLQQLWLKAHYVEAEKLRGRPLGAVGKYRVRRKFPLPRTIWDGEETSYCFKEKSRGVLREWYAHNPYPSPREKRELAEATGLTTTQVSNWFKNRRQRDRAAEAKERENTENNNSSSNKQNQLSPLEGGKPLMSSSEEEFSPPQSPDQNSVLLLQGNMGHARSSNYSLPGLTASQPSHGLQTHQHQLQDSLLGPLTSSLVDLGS
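Compounds are tested against tagged Six1 and Eya2 proteins bridged by glutathione donor and nickel acceptor beads; after a one-hour incubation at 37 °C without light, AlphaScreen emission is recorded.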
* hit, by the source's call; u = inconclusive; x = no result given; [ ] = remark or other dose. Compounds were not picked by outcome (roughly 1% active in at least one column).

SMILES	TRPML1 inh	TRPML1 agonist	D2 PAM	D2 agonist	PINK1 modulator	Six1-Eya2 inh
CCC(=O)N1N=C(c2cccs2)CC1c1ccc(OC)cc1 (stereo unspecified)	-5.6	0.5	-2.7	-0.1	1.0%	2.5
NS(=O)(=O)c1cccc(NC(=O)CSc2nc3nc(-c4cccs4)cc(C(F)(F)F)c3c(=O)[nH]2)c1	-19.0	0.8	-9.7	-0.9	2.4%	-15.6
O=C(NCCc1cccc(F)c1)C1CCCN(c2nc3ccccc3s2)C1 (stereo unspecified)	-11.0	1.4	-7.4	-1.8	0.0%	24.5
COc1ccccc1NC(=O)CSc1nnc(NC(=O)NC2CCCCC2)s1	-15.0	0.3	x	x	2.2%	x
Cc1ccc(S(=O)(=O)N2CCOCC2)cc1C(=O)NC(=S)N1CC(C)CC(C)C1 (stereo unspecified)	11.4	-0.1	-5.7	0.3	-1.1%	1.7
Cc1oc2cc(OCC(=O)O)ccc2c(=O)c1Oc1ccccc1	-17.4	0.3	2.7	-0.2	-0.1%[38.3 µM]	6.0
C=CC[C@H](CC(=O)NCCO)C(=O)N[C@H](COC(=O)[C@@H](CC=C)CC(=O)OC(C)(C)C)Cc1c[nH]c2ccccc12	-5.2	-0.2	11.7	-10.5	-0.8%	0.5
COCCn1c(SCC(=O)Nc2nnc(C)s2)nnc1-c1ccncc1	35.6	1.3	-7.5	-1.8	4.2%[38.3 µM]	3.0
O=C(Cn1nnc2ccccc21)c1cccc([N+](=O)[O-])c1	-3.7	-0.6	-4.7	-1.3	0.0%	3.7
COc1cc(/C=N\NC(=O)c2cccc(Cl)c2)ccc1Oc1ccc([N+](=O)[O-])cn1	30.7	2.3	-1.1	-1.5	1.0%	-16.7
COc1ccccc1C1C(C(=O)NCc2ccccc2)=C(C)Nc2ncnn21 (stereo unspecified)	-3.4	-1.1	-6.6	-4.1	-2.6%	2.4
COC(=O)N(NC(=O)C(O)(CCC(C)C)CCC(C)C)c1ccccc1	18.9	0.6	-2.8	-2.6	5.0%	9.6
CC(C)(C)C1CCC(=NNC(=S)NCc2ccccc2)CC1 (stereo unspecified)	49.2	0.9	-7.4	-1.9	4.0%	-7.1
Cc1cccc(NC(=O)c2nc[nH]c2C(=O)N2CCC(C)CC2)c1	10.8	-0.3	-26.6	-0.1	2.7%	-0.1
CNC(=S)NNC(=O)COc1ccccc1C	12.5	0.7	-21.7	-4.0	x	16.6
CC[C@]12c3[nH]c4cc(-c5ccco5)ccc4c3CCN1C(=O)[C@@H](CC(=O)NCCN1CCOCC1)C[C@@H]2C(=O)N1CCN(C(=O)c2ccco2)CC1	-7.2	-0.4	-4.5	-1.8	-1.0%	-3.2
CCc1ccc(CCC(=O)Nc2ccc(OC)cc2)o1	14.1	-1.0	-16.8	-2.4	0.3%	-2.1
O=C(O)c1c(Cl)cccc1Cl	1.2	-0.2	-4.2	3.1	0.0%	-0.4
CCCCn1nnnc1C(c1cc2ccccc2o1)N1CCCN(C(=O)OC(C)(C)C)CC1 (stereo unspecified)	x	8.9	x	x	0.8%	-1.9
Cc1ccc(N2C(=O)N(c3ccc(C)cc3)C3CS(=O)(=O)CC32)cc1 (stereo unspecified)	-1.2	0.0	-1.6	6.1	-0.3%	0.2
NNc1ccc2nnc(C(F)(F)C(F)(F)C(F)(F)F)n2n1	-7.2	-0.4	-3.5	-6.4	1.8%	0.4
COCCCNC(=O)CC(NCCCOC)C(=O)O (stereo unspecified)	42.9	0.3	-3.5	-4.2	-0.8%	3.8
O=C(COc1ccc(Cl)cc1)Nc1cnn(Cc2c(Cl)cccc2Cl)c1	2.3	0.6	-27.4	0.6	8.4%	-7.5
CC1(C)OC2CC3C4CC=C5CC(O)CCC5(C)C4CCC3(C)C2(C(=O)CO)O1 (stereo unspecified)	-5.1	-0.4	-2.3	3.7	1.7%	0.7
CCN1C(=O)/C(=C\c2cccs2)C(C(=O)OC)=C1C	-6.3	1.1	-4.2	-0.8	-2.9%	-5.7
COc1ccc2[nH]c(C(=O)N3CCN(C)CC3)c(C)c2c1	3.6	0.1	-9.9	0.7	-1.7%	11.9
CCOC(=O)c1ccc(COC(=O)c2cc(=O)[nH]c3ccccc23)o1	11.0	1.7	14.6	4.1	-0.2%	-12.5
O=C(NC(=S)Nc1cc([N+](=O)[O-])ccc1O)C1CC1	3.6	-0.4	-4.6	-6.6	0.8%	-8.9
CC(C)C[C@H]1CN=C(Nc2ccccc2)N1CCCCc1ccccc1	-5.4	-0.2	-14.6	-2.0	18.9%	-3.8
CCC1CCCCN1C(=O)c1cc2cc(Br)ccc2oc1=O (stereo unspecified)	-11.2	4.0	-1.4	-0.8	-3.2%	-6.7
O=C(Cn1c(=O)[nH]c2ccsc2c1=O)N1CCN(c2ccc(F)cc2)CC1	-1.0	0.8	-9.8	-1.7	-0.2%	-1.9
COC(=O)[C@@]1(C)[C@H]2C(=O)N(C)C(=O)[C@H]2[C@H]2CN=C(SCc3ccccc3)N21	42.4	2.4	-4.1	0.4	7.1%	8.1
Cc1cccc(N=C2NC(=O)/C(=C\c3cccs3)S2)c1	11.3	1.6	-32.0	-5.1	2.6%	-22.5
CC(=O)Nc1cccc(-c2ccnc3c2CC(C)(C(=O)NCc2cccs2)O3)c1 (stereo unspecified)	2.0	-0.6	-2.1	2.4	7.8%	1.8
CC[C@]12c3[nH]c4ccc(OC)cc4c3CCN1C(=O)C(CC(=O)NCCCOC)C[C@@H]2C(=O)N1CCN(C(=O)C2CC2)CC1 (stereo partly specified)	-16.6	-0.2	6.7	-1.6	0.8%	0.0
O=C(COC(=O)C1CCN(c2ccc(C(F)(F)F)cn2)CC1)NCCc1ccccc1	12.8	1.3	-4.7	-0.3	-0.6%	10.0
Cc1nc2cc(N=NC3=C(O)CCCC3=O)ccc2s1	7.8	-0.7	-14.6	-7.2	5.7%	-9.5
Cc1nc(-c2nnc(SCC(=O)Nc3cc(Cl)cc(Cl)c3)n2C)cs1	-7.9	1.1	-8.3	-1.7	3.5%	14.8
CCOC(=O)CSc1nc2sc3c(c2c(=O)n1-c1ccccc1)CCN(C)C3	-18.9	-0.1	-4.8	-2.1	4.0%	-1.1
O=C(NCCc1ccccc1)C(=O)N/N=C/c1ccccc1C(F)(F)F	-8.1	0.0	-5.1	-3.8	x	-0.3
COc1ccc(C(=O)N[C@H](C(=O)Nc2sccc2C(N)=O)C(C)C)cc1	-9.4	1.5	-1.2	1.3	-0.5%	-0.7
COc1ccc(S(=O)(=O)N2CCN(Cc3ccc4c(c3)OCO4)CC2)cc1	-11.4	3.0	-14.6	5.3	-1.5%	-3.1
COc1cc(S(=O)(=O)N(Cc2cccc(OC)c2OC)CC2CCCO2)ccc1-n1cnnn1 (stereo unspecified)	9.0	0.6	-8.3	-0.4	-0.1%	-6.5
Cc1cccc(OCc2nnc(SCC(=O)Nc3nccs3)o2)c1	-5.7	3.8	0.7	0.4	3.2%	-94.4*
O=C(Nc1cccc(Br)c1)c1ccc2c(c1)SC1=NS(=O)(=O)CCN12	-4.3	-0.4	-2.3	1.1	1.7%	-0.4
O=C1/C(=C/c2ccncc2)SC(=S)N1C1CCCCC1	20.8	-0.1	-7.9	-0.2	3.0%	-10.6
Cc1ccc(CNC(=O)c2c[nH]c3ccc(S(=O)(=O)N4CCOCC4)cc3c2=O)cc1	-2.8	-0.3	x	x	2.3%	x
COc1ccc(CNC(=O)CN(C(=O)c2snc(C(N)=O)c2N)c2cccc(F)c2)cc1	2.3	-0.6	-4.5	1.9	-1.3%	0.2
O=C1CCC(C(=O)Nc2ccccc2N2CCOCC2)=NN1	24.9	-0.5	-1.0	-6.4	-0.2%	-4.4
Cc1ccc(C(=O)N/C(=C\c2ccco2)C(=O)NCc2cccnc2)cc1	12.3	-0.5	-8.8	-4.8	-0.7%	-4.0

Profiles as entered above. Screens in order: TRPML1 inh | TRPML1 agonist | D2 PAM | D2 agonist | PINK1 modulator | Six1-Eya2 inh
O=C(Nc1cccc(Br)c1)c1ccc2c(c1)SC1=NS(=O)(=O)CCN12 is listed with -4.3 | -0.4 | -2.3 | 1.1 | 1.7% | -0.4
COc1ccc(S(=O)(=O)N2CCN(Cc3ccc4c(c3)OCO4)CC2)cc1 is listed with -11.4 | 3.0 | -14.6 | 5.3 | -1.5% | -3.1
COc1ccc(CNC(=O)CN(C(=O)c2snc(C(N)=O)c2N)c2cccc(F)c2)cc1 is listed with 2.3 | -0.6 | -4.5 | 1.9 | -1.3% | 0.2
Cc1ccc(CNC(=O)c2c[nH]c3ccc(S(=O)(=O)N4CCOCC4)cc3c2=O)cc1 is listed with -2.8 | -0.3 | x | x | 2.3% | x

Continued:
SMILES	TRPML1 inh	TRPML1 agonist	D2 PAM	D2 agonist	PINK1 modulator	Six1-Eya2 inh
CCOC(=O)C1=CN(Cc2cccc(-c3ccc(Cl)nc3)c2)S(=O)(=O)N(C)C1C (stereo unspecified)	25.6	0.1	2.4	3.5	3.8%	4.1
N#Cc1nc(-c2cccs2)oc1N1CCOCC1	20.1	1.3	-18.1	-0.7	u	-1.8
CCc1cc(-c2nnn(CCC3COCCO3)c2CC)ccc1-c1cn(CCc2c[nH]c3ccccc23)nn1 (stereo unspecified)	8.2	0.3	-7.0	-3.4	-1.2%	-15.3
CSc1ccc(NS(=O)(=O)c2ccc(-n3cnnn3)cc2)cc1	-2.2	1.4	-1.0	2.1	0.8%	0.4
Cc1ccc2nc(Cl)c3nnnn3c2c1	1.5	4.6	0.1	-2.3	-0.8%	-3.1
CCN(CC)c1ccc(C(=O)N/N=C(\C)c2cccc(OC)c2)cc1	53.0	2.3	4.6	-2.5	10.1%	-10.9
Cc1occc1-c1nnc(SCC(=O)NC2(C#N)CCCC2)n1C	7.6	-0.4	-8.3	-3.0	2.6%	-4.6
Cc1c(NC(=O)c2cc(CC(C)C)on2)c(=O)n(-c2ccccc2)n1C	8.8	-0.7	-5.1	-30.2	-0.7%	12.3
COCC(=O)N1c2nc(-c3ccco3)nn2C2(CCCCC2)[C@@H]2CCCC[C@@H]21	18.1	1.9	x	x	-0.7%	x
COc1ccc(S(=O)(=O)Nc2c(C(=O)O)[nH]c3ccc(OC)cc23)c(OC)c1	31.8	-0.2	-0.5	12.4	3.0%	-13.4
COc1ccc(C(=O)Nc2ccc(C(=O)NCCc3ccccc3)cc2)cc1	19.4	0.1	-9.0	-0.6	-1.3%	-2.0
CCN(CC)C(=O)c1ccc(CS(=O)(=O)c2ccc(OC)cc2)o1	7.7	-0.3	-5.4	-3.9	3.0%	-0.2
Cc1cccc(Cn2c(C)c(C)c3cc(C(=O)NCc4ccco4)ccc32)c1	-6.3	2.2	x	x	6.0%	x
CC(C)c1ccc(NC(=O)c2cccc(NC3=NC4CS(=O)(=O)CC4S3)c2)cc1 (stereo unspecified)	-13.9	-0.8	3.2	-2.1	0.2%	0.8
CCC(=O)N1CCN(c2ccccc2NC(=O)c2ccc(OC)c(Cl)c2)CC1	-9.7	-0.2	-6.3	-0.9	-1.6%	2.0
O=C(COC(=O)/C=C/c1nc2ccccc2s1)Nc1cccc(Cl)c1Cl	-3.6	-0.4	-11.9	-2.3	0.5%	0.1
